AID504770: E. coli YBA685 growth inhibition, screen for V. cholerae RctB inhibitors. z-score (concentration not given with the values). 130,000 tested, 0.27% active. E. coli YBA685 rctB-dependent plasmid, OD600 growth, 3 h; active compounds read low;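 active = z-score under -2 on both plates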;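 also: wells of about 30 µL received 100 nL stock; score is relative to mean and SD of the test wells; the first replicate is given; strong numbers were not always called active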
Ba CapD inh: inhibitors of Bacillus anthracis CapD enzyme | purified CapD enzyme, fluorescence intensity read-out; active compounds read low; some hits fall short of the stated cut | z-score (concentration not given with the values) | 140,000 tested, 0.23% active;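 active = z-score under -4 in either of two replicates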;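 also: stock transfer was 100 nL into about 40 µL; score is relative to mean and spread of the plate; one replicate is shown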
Numbers without * were called inactive; / = no result given; & = joins results of further samples.

mol	Ba CapD inh	AID504770
CCNc1nc(CN2CCOCC2)nc2sc3c(c12)CCCC3	/	-0.05
Cc1cc(C)n(C(=O)N2c3ccccc3Sc3ccccc32)n1	-0.65	-0.75
CC1(C)CCc2cc(-c3ccn(S(=O)(=O)c4cccc(C(F)(F)F)c4)n3)ccc2O1	0.17	0.15
COc1cc(Cl)cc(CNC(C)C(=O)O)c1O (configuration not stated)	-1	/
Cc1c(Cl)cccc1-n1c(SCC(=O)c2ccc(Br)cc2)nc2[nH]ncc2c1=O	-0.26	/
COc1ccc(CN(Cc2ccc(OC)cc2)C(=O)c2cccs2)cc1	-0.41	/
CN1CCC(N(C)C(=O)/C(C#N)=C/c2ccc(OC(F)F)cc2)CC1	/	-0.35
Cn1cccc1C(=O)N/N=C/c1ccc(C(F)(F)F)cc1F	-0.36	/
COc1ccc(S(=O)(=O)NC(CO)Cc2c[nH]c3ccccc23)cc1 (configuration not stated)	0.6	/
Cc1ccc(Cl)cc1NC(=O)Cn1c(=O)n(CCc2c[nH]c3ccccc23)c(=O)c2cccnc21	-2.4	0.9

Further compounds
mol	Ba CapD inh	AID504770
Cc1ccc2c(c1)-c1onc(C(=O)N3CCC(C)CC3)c1CO2	3.7	-1
CCCN1Cc2cccc(C(=O)Nc3ccc(CC)cc3)c2C1=O	-0.05	0.35
O=S(=O)(Cc1noc(-c2ccsc2)n1)c1ccccn1	-0.23	0.4
COc1cccc(-n2cc(C(=O)NCc3ccccc3Cl)c3ccccc3c2=O)c1	11	0.15
CC1(C)CC(=O)c2c(SCCO)sc(C#N)c2C1	-0.47	-0.35
COc1ccc(N2CCN(C(=O)CC(c3cccc(C)c3)n3cccc3)CC2)cc1 (configuration not stated)	-1.8	1.2
Cc1cccc(NC(=O)c2c(NC(=O)c3ccccc3C)sc3c2CCCCC3)c1	0.15	/
CC1=C(c2ccccc2)S(=O)(=O)N(CC(=O)O)C1=O	-1.1	0.85
CCC(=O)N(c1ccc(OC)cc1OC)C1C=CS(=O)(=O)C1 (configuration not stated)	-2.8	2
O=C1CC(C(=O)N(C/C=C/c2ccccc2)c2ccc3c(c2)OCCO3)CN1Cc1ccco1 (configuration not stated)	/	0.5

Additional compounds.
mol	Ba CapD inh	AID504770
COc1cc(NC(=O)c2nn3c(c2Cl)NC(c2ccc(OC)c(OC)c2)CC3C(F)(F)F)cc([N+](=O)[O-])c1 (configuration not stated)	-0.17	/
CN(C1CCN(Cc2ccc(-c3ccccc3)cc2)C1)S(=O)(=O)c1ccc(F)cc1F (configuration not stated)	-1.1	/
CNC(=O)C1CCCN(c2nn3cc(-c4ccc(OC)cc4)nc3s2)C1 (configuration not stated)	-0.29	1.6
COC(=O)c1ccc2c(=O)[nH]c(COC(=O)c3ccccc3NCCO)nc2c1	/	-2.2
COC(=O)Nc1nn(Cc2ccccc2F)cc1Br	-0.25	0.65
O=C(OCN1C(=O)c2ccccc2C1=O)c1ccco1	0.94	-0.4
CS(=O)(=O)Nc1ccc2c(c1)OCC(=O)N2Cc1ccccc1	/	-0.9
O=C1/C(=C/c2ccc(-c3ccc(Br)cc3)o2)C=C(c2ccccc2)N1c1cccc2ccccc12	-0.15	/
COC(=O)C(N)C(C)C (configuration not stated)	/	-0.3
O=C1OC2(C(=O)c3ccccc3C2=O)/C(=C(\O)c2cccc(Br)c2)C1=O	-1.2	/

Going on with the list.
mol	Ba CapD inh	AID504770
Cc1ccc(CN2C(=O)/C(=C3\SC(=S)N(CCS(=O)(=O)O)C3=O)c3ccccc32)cc1	-1.7	/
Cc1ccc(C)c(NCc2ccc3c(c2)OCO3)c1	-0.085	1.6
CCOc1cc(/C=C2\SC(=N)N(c3nccs3)C2=O)ccc1OCC(N)=O	-0.63	/
Cc1oc(-c2ccccc2)nc1CC(=O)NC(COc1ccccc1)c1ccc2c(c1)OCCO2 (configuration not stated)	-0.34	/
Cc1cccc2cc(C#N)c(N3CCC(C)CC3)nc12	/	-1.2
O=S(=O)(c1cccc(Br)c1)N1CCN(C2c3ccccc3-c3ccccc32)CC1	-0.47	/
O=C1CC(N2CCCCC2)C=C1Nc1ccccc1 (configuration not stated)	-0.95	0.45
CSc1oc(-c2ccco2)nc1S(=O)(=O)c1ccccc1	0.26	1.8
COc1ccc(-c2cnn(-c3ccc(NC(=O)NS(=O)(=O)c4ccc(C)cc4)cc3)c2)cc1	47	/
CCOc1ccc(NC(=O)c2cnn3c(C(F)(F)F)cc(-c4ccc(OC)c(OC)c4)nc23)cc1	-0.55	/

The listing continues:
mol	Ba CapD inh	AID504770
OC1CC(c2ccccc2)Oc2ccccc21 (configuration not stated)	-0.77	-0.35
COc1ccc(N/C=C\C(=O)c2ccc3c(c2)OCO3)cc1	/	-0.1
C=CCN1C(=O)/C(=C2\SC(=Nc3ccccc3)N(c3ccccc3)C2=O)c2ccccc21	0.12	-0.5
O=C(Nc1ccccc1C(=O)NC1CCCC1)NC1CCCC1	/	-0.75
O=C(CNC(=S)N(Cc1ccccc1)Cc1cccnc1)NC1CC1	0.77	-1.2
Fc1cccc(Cl)c1/C=C/c1cnc2ccccc2n1	2.1	/
O=C(O)CC(C(=O)O)N1C(=O)CSC1=S (configuration not stated)	/	0.25
Cc1cc(NC(=O)c2ccc(=O)[nH]c2)ccc1Br	/	-1.2
CCCCOc1ccccc1C1C(C(=O)OCC)=CN(Cc2ccc(OC)cc2)C=C1C(=O)OCC	45	/
O=C(COC(=O)c1ccco1)NC1CC1	-0.98	-2.2

(cont.)
mol	Ba CapD inh	AID504770
Cc1cc2oc(=O)cc(C)c2cc1N	-0.59	-1.9
CN(Cc1ccccc1)C(=O)CN1C(=O)c2ccccc2S1(=O)=O	0	1.1
CCCc1nc2ccccc2c2c1C(=O)N(C(COC)Cc1ccccc1)C2=O (configuration not stated)	0.59	/
O=C(Cc1ccccc1)NC1CCCCC1NC(=O)Cc1ccccc1 (configuration not stated)	0.42	-0.15
C=CCOc1c(Cl)cc(CC2C(=O)N(c3ccc(CC)cc3)N=C2C)cc1OC (configuration not stated)	0.075	/
Cc1ccc(C2=NS(=O)(=O)N(C)C(C(=O)Nc3sc4c(c3C(N)=O)CCCC4)=C2)cc1	1.7	-0.15
O=C(Cc1ccccc1)OC1=C(c2ccccc2)C(=O)c2ccccc21	-0.59	/
Cc1ccc(-c2cccc(-n3c(C)ccc3-c3cccc(N)c3)c2)o1	-0.46	-0.05
N#Cc1cccc(NC(=O)C(Cl)Cl)c1	-0.46	/
Cc1ccc(Nc2c(O)[nH]c(=O)n2N)cc1	-0.93	-0.1

Further entries follow.
mol	Ba CapD inh	AID504770
N#CC1=C(N)Oc2c(c(=O)oc3ccccc23)C1C1CCCCC1 (configuration not stated)	0.55	0.9
COc1ccc2c(COC(=O)c3ccc(C)c(S(=O)(=O)N4CCOCC4)c3)cc(=O)oc2c1	/	-0.3
O=c1[nH]cnc2c1cnn2-c1ccccc1	-0.78	-1.2&-0.65
Cc1cccc(C2=Nc3ccccc3N=C(c3ccccc3O)C2)c1	-0.24	/
CCOC(=O)C1C(=O)NC(SCC(=O)Nc2c(C)cc(C)cc2C)=C(C#N)C1c1ccccc1OCC (configuration not stated)	-0.5	/
O=C(NNC(=O)c1ccccc1-n1cccc1)c1ccc(Cl)c(Cl)c1	0.49	/
NNC(=O)c1nc(-c2ccccc2)n2c1CCCCC2	/	-0.05
Oc1ccccc1CNC1CCN(Cc2ccccc2)CC1	/	-0.65
CCNc1c(NC(=O)Nc2ccc(CC)cc2)c(=O)oc2ccccc12	3.4	1.9
COc1ccc(OCC(=O)N2CCN(c3cccc(C(F)(F)F)c3)CC2)cc1	/	1.8

Single entries from the list.
`O=C(Cc1ccccc1)NC1CCCCC1NC(=O)Cc1ccccc1` (configuration not stated) | Ba CapD inh: 0.42
`O=C(CNC(=S)N(Cc1ccccc1)Cc1cccnc1)NC1CC1` | AID504770: -1.2
`COc1ccc2c(COC(=O)c3ccc(C)c(S(=O)(=O)N4CCOCC4)c3)cc(=O)oc2c1` | AID504770: -0.3
`COC(=O)Nc1nn(Cc2ccccc2F)cc1Br` | Ba CapD inh: -0.25
`CCCN1Cc2cccc(C(=O)Nc3ccc(CC)cc3)c2C1=O` | AID504770: 0.35

The list goes on.
mol	Ba CapD inh	AID504770
CC1CCN(c2ncnc3c2cnn3C)CC1	-0.26	0
CCc1nc(SC)ncc1C(=O)NCc1ccc(OC)cc1	-0.82	-0.4
CCC(C)(C)C1CCc2oc3ccc(NS(=O)(=O)c4cccs4)cc3c2C1 (configuration not stated)	6.1	-0.7
C[C@H](NC(N)=O)C(=O)N1CCc2ccccc21	/	0.2
Cn1c2c(c(=O)n(C)c1=O)C(c1cccc(OC(=O)c3ccccc3F)c1)C1=C(N2)c2ccccc2C1=O (configuration not stated)	1.3	/
Cn1[nH]c(=O)c2c(C(F)(F)F)ccnc21	-0.45	0.15
CCc1nnc(NC(=O)COc2cc(C)c(Cl)c(C)c2)s1	65	-0.55
Cc1ccc2[nH]c(=S)oc2c1	-0.52	0.45
N#Cc1ccccc1COC(=O)CCC(=O)c1cccs1	/	1.1
O=C(CSc1nnc(-c2ccccc2)n1-c1ccccc1)NC1CC1	0.055	-0.2

Reformatted as labelled records: entries from further up
molecule: CCc1nnc(NC(=O)COc2cc(C)c(Cl)c(C)c2)s1
  Ba CapD inh: 65
  AID504770: -0.55

molecule: O=C(CSc1nnc(-c2ccccc2)n1-c1ccccc1)NC1CC1
  Ba CapD inh: 0.055
  AID504770: -0.2

molecule: N#Cc1ccccc1COC(=O)CCC(=O)c1cccs1
  Ba CapD inh: /
  AID504770: 1.1

molecule: Cn1c2c(c(=O)n(C)c1=O)C(c1cccc(OC(=O)c3ccccc3F)c1)C1=C(N2)c2ccccc2C1=O (configuration not stated)
  Ba CapD inh: 1.3
  AID504770: /

More entries follow.
mol	Ba CapD inh	AID504770
O=C(c1ccccc1)C12CC3CC(CC(C3)C1)C2	0.28	-0.9
CC(C)N(Cc1ccc(N(C)C)cc1)C(=O)c1sc2ccccc2c1Cl	0.22	-1
Cc1cccc(NS(=O)(=O)c2ccc(C(=O)NC3=NCCS3)cc2)c1C	/	-0.45
O=C(NCc1ccccc1)c1ccc(C(=O)NCc2ccccc2)cc1	-0.56	0
CCN=C1NC(=NCC)c2ccccc21	/	-0.25
COC(=O)C1=C(C)Nc2c(c(=O)n(C)c(=O)n2C)C1c1ccc(Br)cc1 (configuration not stated)	1.1	-0.7
COc1ccc2[nH]c(=O)c(CN(C(C)=O)c3cccc(C)c3)cc2c1	66	0.9
CSc1cccc(NC(=S)N(CCc2ccncc2)C(C)C)c1	-0.73	1.4
CC(NC(=O)CC#N)c1ccccc1 (configuration not stated)	-0.94	-0.45
Clc1nnc(N/N=C/c2ccccc2)c2ccccc12	-0.01	1

Additional entries.
mol	Ba CapD inh	AID504770
CCn1c(CSc2ncccn2)nnc1SCC(=O)N1CCc2ccccc21	/	1.2
Cc1ccc(-n2nc(C)c(/C=N/NC(=O)Cc3csc(C)n3)c2Cl)cc1	/	-0.2
CC(C)Sc1n[nH]c(=S)s1	/	-0.5
O=C(Cc1ccc(Cl)cc1)Nc1ncn[nH]1	-0.23	-0.75
O=C(O)CCNC(=O)c1ccc(NC(=O)Cc2ccc(Cl)cc2)cc1	1.4	0.65
Cc1cc(N=CNOC(=O)c2nn(-c3ccccc3)nc2C)no1	0.36	-0.8
CCOc1ccc(N(C(C)=O)C2=NCCCS2)cc1	/	-0.9
Cc1cc(=O)oc2ccc(OC(=O)Cc3cccs3)cc12	-0.17	-0.65
Cc1cccc2sc(NC(=O)c3sc4ncn(Cc5ccccc5F)c(=O)c4c3C)nc12	0.58	/
c1ccc2[nH]c(SCCSc3nc4ccccc4[nH]3)nc2c1	-0.15	0.1

Other compounds:
mol	Ba CapD inh	AID504770
N#CC1=C(N)C(C#N)(C#N)[C@@H](c2cccnc2)[C@@H]2CCCC=C12	0.17	/
O=C1SC(C2SC(=O)N(Cc3ccc(F)cc3)C2=O)C(=O)N1Cc1ccc(F)cc1 (configuration not stated)	0.81	0.25
O=C(CSc1cccc2cccnc12)NCc1ccccc1	46	-0.4
CCN1CCN(CCCNC(=O)c2ccc3c(c2)N(Cc2ccccc2)CCS3)CC1	81	-0.15
Cc1cccc(-n2cnc3cc(C(=O)N4CCOCC4)ccc32)c1	0.62	0.2
Cc1onc(-c2c(Cl)cccc2Cl)c1C(=O)Nc1ccc(F)c(F)c1	0.34	/
Cc1ccc(C)n1C(CC(=O)O)c1ccc(F)cc1 (configuration not stated)	-0.17	0.1
CCCCn1c(=O)[nH][nH]c1=S	/	2
Cc1cc(C)cc(NS(=O)(=O)CC23CCC(CC2=O)C3(C)C)c1 (configuration not stated)	0.03	0.4
COc1ccccc1N1CCN(C(=O)c2ccc3c(=O)n(Cc4ccc5c(c4)OCO5)c(=S)[nH]c3c2)CC1	-0.045	/

The list continues.
mol	Ba CapD inh	AID504770
CC(C)CC(NC(=O)c1cc(=O)n(-c2ccccc2)[nH]1)C(=O)OC(C)(C)C (configuration not stated)	0.17	/
CCCN1CCN(c2ncnc3sc(C(=O)Nc4ccccc4C(=O)OCC)c(C)c23)CC1	-0.21	/
CCCCNc1nc(SCC(=O)Nc2cccc(OC)c2)nc2ccccc12	-0.22	/
O=C(Nc1ccccc1OC(F)F)C1=NN(c2nc3ccccc3[nH]2)C(=O)CC1	/	-0.45
COc1ccc(-c2nc(C#N)c(N3CC(C)CC(C)C3)o2)cc1 (configuration not stated)	44	0.65
O=S(=O)(NCCN1CCCCC1)c1cc(F)c(Br)cc1F	-0.65	/
COCCOC(=O)CSc1ncn[nH]1	0.23	/
CCOc1ccc(-n2cc(C(=O)NC(C)c3cccs3)nn2)cc1 (configuration not stated)	0.76	-1
O=C(Cn1c(-c2cccs2)cc2ccccc21)N1CCN(c2ccccc2)CC1	34	-0.95
CCNC(=S)N1CCN(CC)CC1	/	-0.15
COc1ccc(Cl)cc1C(=O)N/N=C/c1cccc(C(=O)O)c1	-0.29	/
O=C1CSC2=NCN(c3ccccc3)CN12	0.34	-0.45
O=C(Nc1c(-c2ccccc2)nc2ccccn12)C1CCCCC1	39	-0.35

Screening results deposited in PubChem BioAssay by ICCB-Longwood Screening Facility, Harvard Medical School.

Only part of the results is shown; count on the stated rates, not on these rows.
